# Compound activity: PubChem BioAssay, National Center for Advancing Translational Sciences (NCATS)
# VACV mCherry inh – vaccinia inhibition (mCherry reporter); Vaccinia virus mCherry reporter infection, fluorescence; about a quarter of the inactives have no number; 310,000 tested, 0.63% active; AID 720579; Potency, µM (doses to about 36.5 µM), for the others: at the top dose activity change, negative = inhibition, hits mostly inhibitors; active = well fitted inhibition curve with a large enough effect; inconclusive = small, poorly fitted or top-dose-only effect; inactive = no such curve, though single readings can be large or run the other way; tested in A549 cells; also: nearly all actives have a fitted effect of over 35% in size; inactives centre near -10
# VACV Venus inh – vaccinia inhibition (Venus reporter) | Vaccinia virus Venus reporter expression, fluorescence | Potency, µM (series often up to 36.5 µM), for the others: top-dose activity change, negative = inhibition, usual class: inhibitors | 330,000 tested, 0.46% active; active means well fitted inhibition curve with a large enough effect; inconclusive means small, poorly fitted or top-dose-only effect; inactive means no such curve, though single readings can be large or run the other way; tested in A549 cells; also: nearly all actives have a fitted effect of over 30% in size; inactives centre near -10
# The depositor's hits bear a star; i = inactive; ? = inconclusive; . = no result given; & = joins results of further samples; [ ] = dose if it differs, or a comment. % is scaled to controls: 0 for no effect and ±100 for the full control effect; potency is read from the fitted curve at half-maximal effect.
SMILES,VACV mCherry inh,VACV Venus inh
COc1cccc(-c2nc(C#N)c(N3CCN(C(=O)c4ccco4)CC3)o2)c1,-1%,-12%
COC(=O)c1ccc(NC(=O)CCc2c(C)nn(-c3ccc(N4CCOCC4)nn3)c2C)cc1,-6%,-7%
SCc1nc2ccc(Cl)cc2[nH]1,-21%,-13%
Cc1cc2ccccc2c(=O)n1CC(=O)NCc1ccco1,-6%,-18%
COC(=O)c1cc(=O)n(Cc2ccco2)c(=Nc2ccc(F)cc2)s1,?,?
CC1=C(C(=O)NCc2ccccc2)C(c2cccs2)NC(=S)N1 (stereo not given),-19%,3%
COc1ccccc1S(=O)(=O)Cc1ccc(C(=O)NC2CCCCC2)o1,-15%,-16%
CN(C)C(=O)CCc1ccc2c3c([nH]c2c1)[C@]1(CCc2ccccc2)[C@@H](C(=O)N2CCCCC2)C[C@H](CC(=O)NCCc2ccccn2)C(=O)N1CC3,?,-12%
Cc1cc(=O)oc2cc(NS(=O)(=O)c3ccccc3)ccc12,i,-7%
COc1ccc(CCn2nc(C)c([N+](=O)[O-])c2C)cc1,i,-6%
CC1(C)CC(=O)C(CC2C(=O)CC(C)(C)CC2=O)C(=O)C1,i,-12%
Cc1ccsc1-c1n[nH]c(=S)n1C1CCCCC1,-9%,-15%
COc1ccc(CCNC(=O)CN(c2cc(C(F)(F)F)ccc2Cl)S(C)(=O)=O)cc1,3%,-5%
CN(C)c1cccc(C(=O)NCCCn2ccc3ccccc32)c1,?,-13%
Cc1ccc(C2CC(c3ccccc3)=NN2C(=S)Nc2ccccc2)o1 (stereo not given),.,?
O=C(Nc1ccccc1)OCCN1CCOCC1,-14%,-2%
Cc1ccc2c(c1)N(C(=O)CCC(=O)NCCCN1CCOCC1)CC(C)O2 (stereo not given),6%,7%
COc1ccc(NC(=O)C2c3ccccc3OCC(=O)N2CC(F)(F)F)cc1 (stereo not given),10%,1%
COc1ccc(CNC(=O)c2cc3c(=O)[nH]c4ccc(C)cc4c3s2)c(OC)c1,?,-26%
CCOC(=O)c1cc(-c2ccccc2)nc2nc(N3CCCCC3)sc12,-9%,0%
CC(OC(=O)c1cccc(-n2cnnn2)c1)C(=O)Nc1ccc(N(C)C)cc1 (stereo not given),-16%,-11%
CCOC(=O)N1CCC(NC(=O)c2cc(-c3ccc(F)cc3)[nH]c2C)CC1,-15%,-22%
COc1ccc(NC(=O)Cn2c(C)c3cnn(-c4ccccc4)c(=O)c3c2C)c(OC)c1,-10%,3%
N#Cc1cccc(NC(=O)COC(=O)c2cccc(N3C(=O)c4ccccc4C3=O)c2)c1,i,-19%
COc1cc(-c2nnc(SCC(=O)NC(C)C)o2)cc(OC)c1OC,-22%,-13%
# Next part.
SMILES,VACV mCherry inh,VACV Venus inh
O=c1[nH]cnc2c1c(-c1ccccc1)cn2-c1ccc(Br)cc1,?,?
Cc1ccccc1NC(=S)N(C)Cc1cccs1,.,-10%
CC1CN(C(=O)COC(=O)c2cc(Cl)ccc2[N+](=O)[O-])CC(C)O1 (stereo not given),-15%,-9%
COc1ccc2c(c1)OC1=C(C(=O)CCC1)C2C1=C(O)CCCC1=O (stereo not given),45%[activator][1.46 µM],-7%
CC(C)(C)Cc1nnc(NC(=O)CN2C(=O)c3ccccc3C2=O)s1,-14%,-9%
CN(C(=O)Cc1c(C(=O)O)n(C)c2ccccc12)c1ccc(Cl)cc1,-10%,-8%
Cc1ccc(CN2C(=O)C3(SCC(=O)N3c3ccc(C)c(C)c3)c3ccccc32)cc1 (stereo not given),-17%,-19%
CCCC(=O)Nc1ncnc2c1ncn2[C@@H]1O[C@@H]2COP(=O)(O)O[C@H]2[C@H]1OC(=O)CCC,-3%,-12%&-7%&-9%
COc1ccc(NC(=O)c2ccc3c(c2)S(=O)(=O)c2ccccc2C3=O)cc1,-12%,3%
CC(NS(=O)(=O)c1ccc2c(c1)C(=O)c1cc(S(=O)(=O)NC(C)C(=O)O)ccc1-2)C(=O)O (stereo not given),-1%,-20%
CCN(C[C@H]1N[C@@](Cc2ccccc2)(C(=O)OC)[C@H]2C(=O)N(Cc3ccccc3)C(=O)[C@@H]12)S(=O)(=O)c1ccc(C(F)(F)F)cc1,-12%,-8%
COc1ccc(C(=O)NCCS(=O)(=O)N2CCOCC2)cc1,-10%,-1%
O=C(CCCN1C(=O)C(=Cc2ccc3c(c2)OCO3)SC1=S)Nc1ccc(C(=O)O)c(O)c1,10%,3%
COCOCCn1cc(CN2CCS(=O)(=O)N(Cc3ccc(-c4ccc(Cl)nc4)cc3)C(CC(C)C)C2=O)nn1 (stereo not given),-16%,?
COc1ccc(CCNC(=O)c2cc(-c3ccc(C)c(C)c3O)n[nH]2)cc1OC,.,?
Cc1ccc(NC(=O)c2c(C)oc3ccc(O)c(CN4CCCCCC4)c23)cc1,-6%[7.34 µM],-5%[7.34 µM]
COc1cc(OC)cc(C(=O)Nc2ccccc2S(=O)(=O)N2CCCC2OC(C)=O)c1 (stereo not given),-9%,-12%
Cn1c(=O)c2c(nc(SCc3nc(N)nc(N4CCCCC4)n3)n2C)n(C)c1=O,2%,-7%
Cn1c(CC(=O)NNC(=O)c2ccc(Cl)nc2)nc2ccccc21,i,-12%
C=C(C)CSc1cc(C)c(C#N)c2nc3ccccc3n12,i,-3%
CSc1ccc(S(=O)(=O)N(CC(=O)NCc2ccccn2)c2ccc(C)cc2)cc1,-29%,-18%
COc1ccccc1C(=O)Nc1ccccc1C(=O)N1CCCC1,.,6%
CCN(CC)c1ccc(S(=O)(=O)N2CCOCC2)cc1NC(=O)COC(=O)/C=C/c1ccc(C)o1,-21%,-8%
CCC(Cn1nnc2ccccc2c1=O)NC(=O)Nc1ccccc1OC (stereo not given),-10%,-5%
CC(C)CN(C(=O)/C=C/c1nc2ccccc2s1)C1CCS(=O)(=O)C1 (stereo not given),-19%,-10%

# 3 records drawn at random from those above:
SMILES,VACV mCherry inh,VACV Venus inh
CC1=C(C(=O)NCc2ccccc2)C(c2cccs2)NC(=S)N1 (stereo not given),-19%,3%
CSc1ccc(S(=O)(=O)N(CC(=O)NCc2ccccn2)c2ccc(C)cc2)cc1,-29%,-18%
Cc1ccccc1NC(=S)N(C)Cc1cccs1,.,-10%

# Single records, as listed above. Order of values: VACV mCherry inh	VACV Venus inh
# Entry for COCOCCn1cc(CN2CCS(=O)(=O)N(Cc3ccc(-c4ccc(Cl)nc4)cc3)C(CC(C)C)C2=O)nn1 (stereo not given) : -16%	?
# Entry for CCN(CC)c1ccc(S(=O)(=O)N2CCOCC2)cc1NC(=O)COC(=O)/C=C/c1ccc(C)o1 : -21%	-8%
# Entry for COc1cc(OC)cc(C(=O)Nc2ccccc2S(=O)(=O)N2CCCC2OC(C)=O)c1 (stereo not given) : -9%	-12%
# Entry for O=C(CCCN1C(=O)C(=Cc2ccc3c(c2)OCO3)SC1=S)Nc1ccc(C(=O)O)c(O)c1 : 10%	3%
# Entry for CC(C)(C)Cc1nnc(NC(=O)CN2C(=O)c3ccccc3C2=O)s1 : -14%	-9%

# (next part)
SMILES,VACV mCherry inh,VACV Venus inh
CN(C)Cc1c(O)ccc2ccccc12,?,-4%
COC(=O)c1cc(C)nc(Nc2nc(C(N)Cc3ccc(F)cc3)cs2)n1 (stereo not given),i,-8%
CSC1=NCCN1C(=O)c1c(-c2c(F)cccc2Cl)noc1C,i[7.34 µM],-7%[7.34 µM]
COc1ccc(C)cc1NC(=O)COCc1cc(-c2cccs2)on1,-9%,-6%
Cc1ccc(SCCC(=O)N2CCN(S(=O)(=O)c3ccccc3)CC2)cc1,-9%,-12%
CC(=O)Nc1ccc(NS(=O)(=O)c2ccc(CN3C(=O)c4cccnc4C3=O)cc2)cc1,i,-13%
CC1CCc2c(ccc3ccccc23)C1=O (stereo not given),-9%,-16%
O=S(=O)(c1ccccc1)N1CCN(C(=S)NC2CCCC2)CC1,i,-10%
Cc1cc(C)cc(NC(=O)CN2CCN(CCN=CC3=C(O)CC(C)(C)CC3=O)CC2)c1,.,-10%
CCCCN(CCCNC(=O)c1ccc2nc(N3CCOCC3)sc2c1)Cc1ccccc1,-11%,-23%
CC1=C(C(=O)N(C(C)C)C(C)C)CC(CC(=O)NC(c2ccccc2)c2ccccc2)C(=O)N1Cc1ccc(C(C)(C)C)cc1 (stereo not given),i,-14%
CCN(CC)CCn1c2c(c(SCC(=O)Nc3nc(C)cs3)nc1=O)CCC2,-18%,-13%
COCCC(C(=O)Oc1c(C(C)(C)C)cc(C)cc1C(C)(C)C)c1ccccc1 (stereo not given),0%,-12%
CC(C)OC(=O)CCc1nc2ccccc2[nH]c1=O,-19%,-14%
CCCCCn1c(SCCN2CCOCC2)nc2c1c(=O)[nH]c(=O)n2C,?,-15%
CN(c1ccc(-c2csc(NC(=O)CCCc3nc4ccccc4c(=O)[nH]3)n2)cc1)S(C)(=O)=O,-9%,-20%
CCCNC(=O)c1cc2c(c(-c3cccc(-c4ccc(C#N)cc4)c3)n1)[C@@H](CCO)N(C(=O)CC)C2,-7%,-1%
Cc1onc(-c2ccccc2Cl)c1C(=O)OCN1C(=O)c2ccccc2C1=O,.,-13%
CC(Cc1ccccc1)/[N+]([O-])=C\c1ccc(C(F)(F)F)cc1 (stereo not given),-14%,-16%
C#Cc1ccc([C@@H]2C=C(C(=O)O)O[C@H](OCC)[C@H]2CCCO)cc1,i,1%
Cc1ccc(CNC(=O)C(C(C)C)N2Cc3ccccc3C2=O)cc1 (stereo not given),i,-11%
COc1ccc(N2CCN(Cc3oc(CO)cc(=O)c3O)CC2)cc1,-12%,-5%
Cc1c(C)[n+](=O)c2c(n1[O-])C(Br)CCC2Br (stereo not given),-10%,5%
CC(CN1C(C)CCCC1C)OC(=O)c1ccccc1Cl (stereo not given),-2%,-11%
CC1CCCC(C)N1/N=C/c1cc(Br)cc(Br)c1O (stereo not given),-13%,-6%
# Further structures.
SMILES,VACV mCherry inh,VACV Venus inh
Clc1ccc(C2=NNC(=NCc3ccccc3)SC2)cc1,?,-15%
Cc1ccc(C(=O)COC(=O)c2ccc(Cl)c(N)c2)s1,i,-5%
CC(=O)c1ccc(Oc2ncnc3c2oc2ccccc23)cc1,-14%,-10%
COc1ccc(-n2c3c(c(=O)[nH]c2=O)C(NS(=O)(=O)c2ccc(Cl)cc2)(C(F)(F)F)C(=O)N3)cc1 (stereo not given),i,-15%
CS(=O)(=O)Cc1ccc(C(=O)Nc2cccc(-c3nc4ccccc4[nH]3)c2)cc1,-11%,-11%
COC(=O)[C@@]12C[C@@H](CC(=O)NCc3ccccc3)C(=O)N(Cc3cccc4ccccc34)C1=CCC(C)(C)C2,?,?
O=c1[nH]cnc2nc(-c3ccc(N(CCCl)CCCl)cc3)[nH]c12,i,-1%
CC(C)(C)n1nc2c(c1NC(=O)Cc1ccc(F)cc1)CSC2,-10%,-2%
O=C(CC1C(=O)NCCN1Cc1c(F)cccc1Cl)NCCCn1cccn1 (stereo not given),0%[7.34 µM],4%[7.34 µM]
CN1CCN(C(=O)C[C@H]2CC[C@H]3[C@@H](COC[C@@H](O)CN3Cc3cccc(F)c3)O2)CC1,-3%,-10%
COc1ccc(N2C(=O)C3CCCN3C2c2ccc(C)cc2)cc1 (stereo not given),-8%,-7%

# Copied from the entries so far, 7 compounds:
SMILES,VACV mCherry inh,VACV Venus inh
COc1ccc(-n2c3c(c(=O)[nH]c2=O)C(NS(=O)(=O)c2ccc(Cl)cc2)(C(F)(F)F)C(=O)N3)cc1 (stereo not given),i,-15%
CS(=O)(=O)Cc1ccc(C(=O)Nc2cccc(-c3nc4ccccc4[nH]3)c2)cc1,-11%,-11%
COC(=O)[C@@]12C[C@@H](CC(=O)NCc3ccccc3)C(=O)N(Cc3cccc4ccccc34)C1=CCC(C)(C)C2,?,?
O=c1[nH]cnc2nc(-c3ccc(N(CCCl)CCCl)cc3)[nH]c12,i,-1%
CC(C)(C)n1nc2c(c1NC(=O)Cc1ccc(F)cc1)CSC2,-10%,-2%
O=C(CC1C(=O)NCCN1Cc1c(F)cccc1Cl)NCCCn1cccn1 (stereo not given),0%[7.34 µM],4%[7.34 µM]
CN1CCN(C(=O)C[C@H]2CC[C@H]3[C@@H](COC[C@@H](O)CN3Cc3cccc(F)c3)O2)CC1,-3%,-10%
